# Screening data from PubChem BioAssay.
# Anaer choline gr = growth inhibitors of anaerobic choline-fed gram-negatives, minimal medium, absorbance | Gram-negative bacterium anaerobic choline minimal medium; active compounds read low; many inactives read as strong as hits in the columns shown | calls only | 55,000 tested, 0.2% active | AID 1963822, 2024;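 active = growth z-score on choline under -2 at 7 or 20 h with little or no fall on glycerol, limits in tiers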;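 note: stock transfer was 300 nL into about 50 µL; the organism is E. coli; final concentration not given here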
# Anaer choline gr early = also measured in Anaer choline gr; calls as there; z-score; measured here: choline growth z-score, timepoint 1;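 score of optical density at 7 h as mean of two plates; lower means less growth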
# * = called active by the depositor; i = inactive; + = active, no number; & = joins results of further samples.
SMILES,Anaer choline gr,Anaer choline gr early
C[C@@H](O[C@H]1OCCN(Cc2n[nH]c(=O)[nH]2)[C@H]1c1ccc(F)cc1)c1cc(C(F)(F)F)cc(C(F)(F)F)c1,i,0.41&0.52
CCn1cc(C2CC(=O)Nc3c2c(C)nn3-c2nc3ccccc3[nH]2)c(C)n1 (stereo not given),i,-0.83
Clc1cccc(CSc2ncnc3nc[nH]c23)c1,i,-0.06
CCC(CC)C(=O)Nc1ccc2nc(SCC(=O)N3c4ccccc4CC3C)sc2c1 (stereo not given),i,0.45
O=S(=O)(NCC1CCCO1)c1ccc(S(=O)(=O)N(Cc2ccccc2)Cc2ccc(Cl)cc2)cc1 (stereo not given),i,1.4
Cc1noc2nc(C)n(Cc3cccc(Cl)c3)c(=O)c12,i,-0.53
CCS(=O)(=O)c1ccc(-c2ccc(NC(=O)c3cc(C)cc(C)c3)cc2)nn1,i,2.1
CCOC(=O)c1ccccc1NC(=O)CSc1ncc(CO)n1Cc1ccc(Cl)cc1,i,-0.21
CCOc1ccc(-c2noc(CSc3nc4cc5c(cc4c(=O)n3C3CC3)OCO5)n2)cc1,i,-1.2
Fc1cccc(-c2noc(Cc3nc(-c4ccccc4Cl)cs3)n2)c1,i,1
COc1cccc(-c2csc(Cc3nc(-c4cccc(C)c4)no3)n2)c1,i,0.63
CCc1nnc2c(Oc3cccc(OC)c3)nc3ccccc3n12,i,-0.54
Cc1c(C(=O)NCc2ccccc2Br)cc(-c2ccccc2)n1C,i,1.3
COc1ccc(C2CCCN2S(C)(=O)=O)cc1 (stereo not given),i,-0.26
CC1CNc2ccccc2N(Cc2ccccc2)C1=O (stereo not given),i,-0.58
CC(=O)N1CCN(c2nnc(N)s2)CC1,i,-1.3
CC(C)NC(=O)c1ccc(C2Nc3ccccc3S(=O)(=O)N2Cc2cccc(Cl)c2)cc1 (stereo not given),i,-0.89
Cc1ccccc1CSc1nnc2n(CC(C)C)c(=O)c3ccccc3n12,i,1
CCc1ccc(OCc2nc(CCN(C)C(=O)Nc3ccc(C(=O)OC)cc3)no2)cc1,+,-0.57*
CCc1nc(C)cn1S(=O)(=O)c1ccc(F)c(C)c1,i,-1
COc1cc(C2CC(=O)Nc3nc(N)[nH]c(=O)c32)ccc1OCc1cccc(C)c1 (stereo not given),i,0.82
CCN(CC)C(=O)Cn1ccc2ccc(-c3nnc(C)o3)cc21,i,0.78
O=S(=O)(Nc1ccc(-c2ccc(N3CCOCC3)nn2)cc1)c1ccccc1,i,-0.33
CCOc1ccc(-c2c(C)nn3c(C)c(C(=O)Nc4ccccc4Br)cnc23)cc1OCC,i,0.68
O=C(CC1CCCC1)Nc1cc(F)c2nc(N3CCOCC3)ccc2c1,i,0.21

# The results go on:
SMILES,Anaer choline gr,Anaer choline gr early
Cc1ccc(-n2ncc(-c3cc(C(=O)NC4CCCC4)c4cc(C)ccc4n3)c2C)cc1,i,-0.92
COc1ccc(Cl)cc1NC(=O)NCCCn1c(-c2ccc(F)cc2)nc2cccnc21,i,1.4
O=C(NCc1ccccc1)c1cnn2c(C(F)F)cc(-c3ccccc3)nc12,i,1.4
O=C(NCc1ccccc1)c1nc2nc(-c3ccc(F)cc3)cc(C(F)(F)F)n2n1,i,-0.32
COc1ccc(OC)c(NC(=O)c2nn(C)c(C(F)(F)F)c2Cl)c1,i,-0.45
COc1ccc(-c2nnc3c4cnn(-c5cccc(C)c5)c4ncn23)cc1OC,i,-0.39
CCc1ccccc1NC(=O)N1CCC2(CC1)c1cccn1-c1ccccc1N2CC,i,-0.88
COc1ccc2cc(C(=O)Nc3ccc(OC)c(NC(=O)c4cccc(C)c4)c3)[nH]c2c1,i,1.4
COc1ccc(NC(=O)C2CCCN(S(=O)(=O)Cc3ccccc3C)C2)c(OC)c1 (stereo not given),i,1.3
O=C(CSc1ncnc2nc(N3CCCC3)sc12)Nc1ccc2c(c1)OCO2,i,-1.3
Cn1c(=O)c2cc(C(=O)N(Cc3cccs3)C3CCCC3)sc2n(C)c1=O,i,0.47
CC(C)NC(=O)CCn1c(=O)c2ccccc2n2c(SCC(=O)NCC3CCCO3)nnc12 (stereo not given),i,-0.72
CN(c1ccc2sc(C(N)=O)cc2c1)S(C)(=O)=O,i,-1.1
Cc1ccc(C(=O)Nc2nnc(SCc3cc(=O)n4ccccc4n3)s2)cc1,i,0.35
COC(=O)c1sccc1NC(=O)C1CCCN(c2nc3cccnc3s2)C1 (stereo not given),i,-0.4
O=C(Nc1nc2ccccc2s1)NC1CC(=O)N(c2ccc(F)cc2)C1 (stereo not given),i,0.41
Cn1ncc(NC(=O)Cc2ccc(Cl)cc2)c(N2CCCCC2)c1=O,i,1.3
O=C(Nc1cc(F)ccc1F)c1cncc(NS(=O)(=O)c2ccc(Br)cc2)c1,i,-0.25
O=C(NCc1ccc2c(c1)OCO2)C1CCCN(c2ncc(-c3cccc(F)c3)cn2)C1 (stereo not given),i,-1.7
COc1ccc(NC(=O)Cn2c(=O)n(CCCCC(=O)NC(C)C)c(=O)c3ccccc32)cc1,i,-0.49
COc1cc(NC(=O)c2ccccn2)ccc1Cl,i,0.16
Cc1csc(-c2cc(S(=O)(=O)NC3CCCC3)c(C)n2C)n1,i,0.17
c1ccc2c(c1)CCN(c1ncnc3c1CCC3)C2,i,-1.4
CC(C)Oc1ccccc1C1CC(=O)NC2=C1C(=O)CC(C)(C)C2 (stereo not given),i,-0.85
O=C(NCC1CCCO1)c1n[nH]c2c1CCCC2 (stereo not given),i,-0.99

# (more compounds)
SMILES,Anaer choline gr,Anaer choline gr early
Cc1[nH]nc(-c2c(C)sc(C)c2S(=O)(=O)Nc2cccc(Cl)c2)c1C,i,0.31
Cc1onc(-c2ccccc2Cl)c1C(=O)Nc1cc2c(cc1N1CCCCC1)n(C)c(=O)c(=O)n2C,i,0.13
CCC1CCCCN1C(=O)c1cc(C)no1 (stereo not given),i,-0.42
Cc1c(C(=O)NCC2(N3CCN(C)CC3)CCCCC2)oc2ccccc12,i,-2.6
O=C(CN1N=C(c2ccccc2)c2cc(Cl)ccc2S1(=O)=O)Nc1ccc(Cl)cc1,i,-1.4
OCCN1CC(O)C(O)C(O)C1CO (stereo not given),i,0.68
Cc1ccnc(N2CCCC(C(=O)NCCc3c[nH]c4ccc(Cl)cc34)C2)n1 (stereo not given),i,0.38
Cc1ccc(-c2csc(C(=O)NCCc3ccc(S(N)(=O)=O)cc3)c2-n2cccc2)cc1,i,-0.63
O=C(NCc1ccccn1)c1nc(Cn2c(=O)oc3ccccc32)no1,i,-0.65
Cc1cc(C)cc(NS(=O)(=O)c2cc(-c3cc(C(F)(F)F)on3)sc2C)c1,i,1.3
COc1ccc(Cl)cc1NC(=O)c1cccn1-c1cccnc1,i,-0.31
COc1ccc(-c2cc(Oc3cccc(C(=O)NC4CCCCC4)c3)ncn2)cc1,i,1.4
CC(C)CCNC(=O)CSc1nc(-c2ccccc2)no1,i,-2.1
COC(=O)c1cc2ccsc2n1C(C)C(=O)Nc1ccc(F)cc1 (stereo not given),i,-0.05
Cc1occc1-c1nnc(SCC(=O)NC(C)c2nc3ccccc3[nH]2)o1 (stereo not given),i,-1.7
CC1CN(CC(=O)N2CCC(C(N)=O)CC2)c2ccccc2S1 (stereo not given),i,-0.66
O=C(Nc1sc2c(c1C(=O)NCC1CCCO1)CCC2)c1cc(=O)c2cc(Cl)ccc2o1 (stereo not given),i,1.2
COc1ccc(C(=O)N2CCN(Cc3cc(=O)n4nc(-c5ccc(OC)cc5)sc4n3)CC2)cc1,i,0.07
CC(C)n1c(/C=C/[C@H](O)C[C@H](O)CC(=O)O)c(-c2ccc(F)cc2)c2ccccc21,i,0.53
Cc1cc(C(=O)NCCCN2CCc3ccccc3C2)c(C)n1-c1ccc(N2CCC(C)CC2)nc1,i,-0.87
COC(=O)c1c(-c2ccc(F)cc2)noc1NC1CCCCC1,i,1.1
CCS(=O)(=O)c1nc2ccc(NS(=O)(=O)c3ccc4c(c3)CCCC4)cc2s1,i,-0.16
Cn1nc(C(=O)N2CCCC2)c2c1CCN(C(=O)CCC(=O)NCc1cccc(Cl)c1)C2,i,-0.04
O=C(CN1CCN(c2ccccc2F)CC1)Nc1nc(-c2ccccc2)cs1,i,0.66
CC1CCN(C(=O)CC2CCN(S(=O)(=O)c3ccc(Cl)s3)CC2)CC1,i,0.37

# Further records follow:
SMILES,Anaer choline gr,Anaer choline gr early
COc1ccc(CNC(=O)Cn2cnc3c(sc4ncccc43)c2=O)cc1,i,-0.45
CC(C)CCSc1nnc2c(S(=O)(=O)N3CCN(c4ccc(F)cc4)CC3)cccn12,i,-0.65
CCC(=O)NCc1nc2c(n1C)CN(C(=O)c1cc3c(s1)CCCC3)CC2,i,0.25
COc1ccccc1C1CC(=O)Nc2c1c(C)nn2-c1ccc2nnc(C)n2n1 (stereo not given),i,-0.71
CCc1nnc2c(NCCCO)nc3ccccc3n12,i,-1.1
Cc1ccc(S(=O)(=O)c2c(C(=O)c3ccccc3)cnc3cc4c(cc23)OCO4)cc1,i,-0.93
COc1ccc2c(c1)cc(C(=O)Nc1ccccc1OC)n2C,i,1.1
CCOc1ccc(NC(=O)Nc2ccc3snnc3c2)cc1,i,0.16
Cc1cc(C2CCCN2C(=O)c2nn(C)cc2Cl)on1 (stereo not given),i,-0.22
COCC(=O)Nc1cc(F)c2nc(N3CCOCC3)ccc2c1,i,-0.43
C[C@@H](NC(=O)c1cccnc1)c1ccccc1,i,-1.7
CCCN(CCC)C(=O)c1sc2nc(C)nc(N3CCN(c4ccccn4)CC3)c2c1C,i,-0.07
Cc1c(C2CCN(CCc3ccccc3)CC2)noc1-c1ccc(Cl)cc1,i,-0.78
Cc1ccccc1NC(=O)c1ccc(=O)n(Cc2cccc(F)c2)c1,i,-0.25
C=CCOc1cccc(C2CC(=O)Nc3c2c(C)nn3-c2nc3ccccc3s2)c1 (stereo not given),i,0.53
CC(C)c1cc(C2CCCN2C(=O)Cn2nc(C(F)(F)F)c3c2CCCC3)no1 (stereo not given),i,-0.38
Clc1ccc(-c2ccc(CNCC3CCNCC3)o2)c(Cl)c1,i,-2.8
Fc1ccc(CN=C2Nc3ccccc3NC23CCCCCC3)cc1,i,-0.32
CC(C)Cn1cnc2nc(CSc3ccccc3NC(=O)COc3ccccc3)cc(=O)n21,i,-1.1
CCc1cc(C(Nc2cccc(C)n2)c2ccc3c(c2)OCO3)c(NC(=O)c2ccccc2)s1 (stereo not given),i,1.1
Cc1nc2c(C(=O)NCc3ccc4c(c3)OCO4)cnn2c(C)c1Cc1ccccc1Cl,i,1.5
CN1CCOc2ccc(S(=O)(=O)N3CCc4ccccc4C3)cc21,i,-0.51
CC[C@H](CO)Nc1nc(NCc2ccccc2)c2ncn(C(C)C)c2n1,i,0.68
Cc1nn(C)c(C)c1CNC(=O)CN1C(=O)C2CCCCN2c2ccc(S(=O)(=O)N(C)C)cc21 (stereo not given),i,-1.2
CCOc1ccc(-c2nn3c(=O)c(NC(=O)c4ccc(OC)cc4)cnc3o2)cc1,i,-0.86

# Going on with the list.
SMILES,Anaer choline gr,Anaer choline gr early
O=C(Nc1cccc(-c2noc(C3CCC3)n2)c1)Nc1ccccc1Cl,i,0.35
CCOc1cc2c(cc1OCC)C1CC(=O)N(c3cccc(C)c3)C(=O)N1CC2 (stereo not given),i,1.1
CCOc1ccc(-c2csc(Cc3nc(-c4ccccc4Cl)no3)n2)cc1,i,1
O=C(Cn1nc2n(Cc3ccccc3)c(=O)c3ccccc3n2c1=O)Nc1ccc2c(c1)OCO2,i,0.04
CN(C)c1nc(N)c(C(=O)Nc2cccnc2)nc1Cl,i,0.32
CC(C)c1cc(C(=O)NCCN2CCOCC2)no1,i,0.79
Cn1c(C(=O)N2CCN(c3ccccn3)CC2)cc2sccc21,i,-0.31
C=Cc1ccc(CN2C(=O)N(c3cccc(OC)c3)S(=O)(=O)c3ccccc32)cc1,i,0.73
CCOC(=O)Cc1c(C)nc2c(-c3ccc(OC)c(OC)c3)cnn2c1C,i,0.26
COc1ccc(CN2CCN(Cc3ccc4c(c3)OCO4)CC2)cc1OC,i,0.15
Cc1ccc(CN2C(=O)C3CCCCC3C2=O)cc1S(=O)(=O)NCc1ccc2c(c1)OCO2 (stereo not given),i,-2
COc1ccc(N2C(=O)CCS2(=O)=O)cc1S(=O)(=O)Nc1ncccn1,i,-1.2
O=C(NC1CCCC1)N1CCCC1c1cccc(F)c1 (stereo not given),i,-0.35

# Some of the compounds tested; the hit share may differ from the screen's.
